# Menin MLL FP FL = menin-MLL binding inhibition, fluorescein peptide | Fluorescence polarization, fluorescein-MLL peptide displacement from menin | FP activity change, % at 61.4 µM | 290,000 tested, under 10 active | AID 1766; inconclusive = falling polarisation curve, or a change in total fluorescence; inactive = total fluorescence flat and polarisation flat or rising; no compound was filed as active; the % refers to the polarisation; negative = inhibition;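 note: % of control where 0% means no effect; inhibitors lower the polarisation; unlabelled MLL peptide was the positive control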
# gsp ag = activates gsp, the McCune-Albright syndrome mutation; gsp mutant cells, cAMP HTRF, 30 min; control for the full effect not named in the record; Potency, µM (series often up to 76.9 µM), for the others: top-dose activation (cAMP increase), most hits filed as activators; hit rate 0.13% among 340,000; active = well fitted activation curve with a large enough effect; inconclusive = small, poorly fitted or top-dose-only effect, or another doubt; inactive = no such curve, though single readings can be large or run the other way; cell line not stated here;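 note: phosphodiesterase inhibitor Ro 20-1724 added with compounds to block cAMP breakdown; potency is the fitted concentration of half-maximal effect; nearly all actives have a fitted effect of over 60% in size; about a fifth of the inactives were tested at one dose only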
#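 Cells in DMEM/10% FBS with G418 were pretreated with compounds in DMSO plus […] (300 uM stock) for 30 min at 37C. cAMP was measured by HTRF (cAMP-d2 plus anti-cAMP antibody-K) after 30 min at room temperature.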
# ClpP mod = qHTS Assay for Activators of ClpP | ATP-dependent Clp protease proteolytic subunit (Bacillus subtilis (strain 168)), P80244 | Potency, µM (highest dose often 57.5 µM), inactives show at the top dose activity change, negative = active | hit rate 1.9% among 340,000 | purified B. subtilis ClpP, FRET peptide cleavage, 20 min; active = well fitted falling curve with a large enough effect; inconclusive = small, poorly fitted or top-dose-only effect; inactive = no such curve, though single readings can be large or run the other way; note: potency is the fitted concentration of half-maximal effect; the source files actives as falling curves though it sought activators and does not explain the sign; nearly all actives have a fitted effect of over 65% in size; many hits overshoot -100%
# Target sequence (P80244 whole entry, looked up): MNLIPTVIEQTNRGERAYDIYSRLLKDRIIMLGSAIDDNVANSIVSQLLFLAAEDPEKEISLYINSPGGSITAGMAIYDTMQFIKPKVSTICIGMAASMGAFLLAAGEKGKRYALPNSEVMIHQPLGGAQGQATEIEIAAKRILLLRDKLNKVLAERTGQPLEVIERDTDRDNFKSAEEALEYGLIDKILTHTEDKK
#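 Purified B. subtilis ClpP, 10 microg/mL final in Tris/HCl pH8 with KCl, BSA, glycerol and Tween-20, cleaved an Abz/nitrotyrosine-quenched decapeptide. Fluorescence (ex 320, em 430) was read at 0 and 20 min at room temperature. Delta was normalized to 5.8 microM ADEP and DMSO/no-enzyme controls.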
# gsp antag = antagonizes gsp, the McCune-Albright syndrome mutation | Potency, µM (highest dose often 76.9 µM), inactives show at the highest dose activity change, negative = inhibition, most hits filed as inhibitors | hit rate 0.4% among 340,000 | gsp-mutant cells, cAMP HTRF, 30 min; control for the full effect not named in the record; active = falling curve of any shape with a large fitted effect; inconclusive = falling curve, mostly with a smaller effect; inactive = flat or rising curve; cell line not stated here;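 note: intracellular cAMP measured with PDE inhibitor Ro 20-1724 present during compound exposure; potency is the fitted concentration of half-maximal effect; % is set by controls: 0 for no effect and ±100 for the full control effect; nearly all actives have a fitted effect of over 65% in size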
#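 Cells in G418 medium, seeded 16-24 h, 37C; buffer exchange to DPBS + 1 mM CaCl2, 0.5 mM MgCl2, 0.05% BSA; cpds in DMSO + […] (300 uM stock), 30 min 37C; HTRF cAMP detection.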
# TRPML1 agonist = agonists of human TRPML1 channel. Q9GZU1. AID 624414. activation, % (test concentration not listed). TRPML1-expressing cells, Ca2+ dye fluorescence, FDSS; host cell line not named in the record; reference of the full effect not given here. hit rate 0.12% among 410,000; in the data active = activation above about 50%; inconclusive = about 30% to 50%; inactive = below about 30%; note: 0% is about no effect; the text of the record puts the active cut at 80%
# Target sequence (Q9GZU1 whole entry, looked up): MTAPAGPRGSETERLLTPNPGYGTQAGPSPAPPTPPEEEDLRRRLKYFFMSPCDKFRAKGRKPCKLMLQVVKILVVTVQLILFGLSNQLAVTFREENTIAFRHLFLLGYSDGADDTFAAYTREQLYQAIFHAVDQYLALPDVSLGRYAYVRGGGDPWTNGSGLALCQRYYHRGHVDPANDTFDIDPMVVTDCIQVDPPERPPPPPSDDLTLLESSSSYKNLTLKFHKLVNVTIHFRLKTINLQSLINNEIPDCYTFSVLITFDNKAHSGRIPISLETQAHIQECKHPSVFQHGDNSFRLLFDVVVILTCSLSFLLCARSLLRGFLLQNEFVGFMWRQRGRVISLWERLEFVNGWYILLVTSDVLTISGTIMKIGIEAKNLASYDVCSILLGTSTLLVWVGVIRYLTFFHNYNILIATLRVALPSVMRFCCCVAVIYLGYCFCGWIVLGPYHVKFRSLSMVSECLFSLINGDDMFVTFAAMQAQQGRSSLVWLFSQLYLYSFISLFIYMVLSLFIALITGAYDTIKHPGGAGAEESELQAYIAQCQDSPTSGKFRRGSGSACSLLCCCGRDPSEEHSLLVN
#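 Calcium fluorescence on an FDSS kinetic reader gave the read-out. Tet-induced TRPML1-DL cells were plated overnight, dye-loaded (Ca8 with quencher, 45-90 min, room temperature, dark), then read 110 s after compound addition, and again 110 s after 4uM final 54-4 (EC80).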
# TRPML1 blocker = blocks the human TRPML1 channel; Q9GZU1; TRPML1-inducible cells, Ca2+ dye fluorescence, FDSS; hits give low values; inhibition of EC80 agonist-evoked calcium signal; activity change, negative = inhibition, % (concentration not given with the values); hit rate 0.02% among 390,000; in the data active means activity change below about -50%; inconclusive means about -30% to -50%; inactive means above about -30%;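 note: stimulus is agonist 54-4 at its EC80 concentration; % is set by controls: 0 for no effect and ±100 for the full control effect; compound concentration not given in the record; the text of the record puts the active cut at -80%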
#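 Calcium fluorescence in TRPML1-DL cells induced overnight with Tet: a 110 s read after compound pin addition, then a 110 s antagonist read after challenge with 54-4 at 4 uM final (EC80).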
# Numbers without * were called inactive; ? = inconclusive; nt = not tested or not shown; & = joins results of further samples; [ ] = another dose, or the depositor's remark.
mol | Menin MLL FP FL | gsp ag | ClpP mod | gsp antag | TRPML1 agonist | TRPML1 blocker
COc1ccc(Cl)cc1N(CC(=O)NC(C)(C)C)S(=O)(=O)c1ccc(C)c([N+](=O)[O-])c1 | -0.4 | ? | 0.6% | ? | 1.7 | -12
COc1ccc(C2C(C(C)=O)=C(O)C(=O)N2CCc2c[nH]c3ccccc23)cc1 (configuration not stated) | 13 | ? | 0.0% | 9% | 0.3 | 8
CC(C)CCN1C(=O)c2ccc(-c3nc4ccccc4c(=O)o3)cc2C1=O | -0.3 | 24% | -7.5% | -1% | 0.8 | 14
COC(=O)CSc1cc(SCC(=O)OC)c(C#N)c(SCC(=O)OC)c1 | 2.1 | 6% | -3.6% | -29% | 0.5 | 31
C=CCN1C=C2C(=O)C(C)(OC(=O)C3CCCC3)C(=O)C=C2C=C1c1ccsc1 (configuration not stated) | -2.9[11.7 µM] | nt | -3.6% | -5% | -0.2 | -3
O=C(/C=C/c1ccc([N+](=O)[O-])cc1)NCCc1ccccc1 | 0.0 | -16% | 0.5% | -10% | 0.0 | -12
COc1ccc(Br)cc1S(=O)(=O)Nc1ncn[nH]1 | -2.4 | 25% | 0.2% | -1% | 1.5 | 19
Cc1onc(-c2ccccc2)c1C(=O)Nc1nnc(C(C)C)s1 | -0.4 | 7% | -0.8% | -1% | -0.8 | 2
COc1ccc(C(=O)COC(=O)C(CC(C)C)N2C(=O)c3ccccc3C2=O)cc1 (configuration not stated) | -1.7 | -24% | -2.2% | -14% | 1.8 | -6
Cc1ccc(NC(=O)CS(=O)CC(=O)NC(C)CCc2ccco2)cc1Cl (configuration not stated) | -0.1 | -25% | 28µM* | 0% | 0.1 | -9
Cn1nc(-c2ccc(N3CCCCC3)c(NC(=O)c3ccc(Cl)cc3)c2)c2ccccc2c1=O | nt | nt | -0.5% | nt | 0.0 | 9
COc1ccccc1C1C(C#N)=C(N)Oc2cc(C)n(CCCn3ccnc3)c(=O)c21 (configuration not stated) | -3.3 | -1% | 0.1% | -9% | -0.2 | -1
O=C(CSc1nc(-c2ccc(F)cc2)cc(C(F)(F)F)n1)NCc1cccs1 | -1.7 | 2% | -1.5% | 0% | 3.0 | -18
COc1ccc(CC(=O)NCC(=O)Nc2ccccc2Br)cc1 | 0.6 | 15% | nt | 8% | 0.7 | 0
Nc1c(C(=O)Nc2cccc(Cl)c2Cl)sc2nc(-c3cccnc3)ccc12 | 4.2 | ? | 4µM* | 10% | 0.5 | -17
CC(=O)C(Sc1nnnn1-c1ccccc1)C(C)=O | -0.6 | 0%[15.4 µM] | -0.7% | 1% | 0.3 | -1
COC(=O)c1cc2nc(-c3ccc(OC)cc3)cc(C(F)(F)F)n2n1 | -0.4 | 15% | -16% | -4% | -0.9 | 1
c1cc(-c2nsc(-c3ccncc3)n2)ccn1 | -1.7 | 17% | nt | 8% | -0.1 | -3
O=C(Nc1cc(S(=O)(=O)N2CCOCC2)ccc1N1CCOCC1)c1ccc(S(=O)(=O)N2CCCCC2)cc1 | -0.4 | 21%[15.4 µM] | 0.7% | -13% | 0.3 | -18
Cc1noc(C)c1C(=O)OCC(=O)Nc1cccc(S(N)(=O)=O)c1 | -0.1 | 24%[15.4 µM] | nt | 17% | 2.5 | -19
COc1ccc(S(=O)(=O)N2CCCC2C(=O)Nc2nc3c(s2)CCCC3)cc1 (configuration not stated) | 1.0 | -11% | 6.3µM* | ? | 0.5 | 1
COc1cccc(-c2cc(C(=O)Nc3cnn(Cc4ccc(F)cc4)c3)no2)c1 | 2.0 | 6% | -2.7% | 8% | 0.0 | -11
Cc1ccc(NC(=O)C2CCC(=O)N2C(=O)OCc2ccccc2)cc1 (configuration not stated) | nt | 9% | nt | 6% | -0.1 | 3
CC(=O)Nc1ccc(S(=O)(=O)N(C)CC(=O)OCC(=O)N2CCc3ccccc32)cc1 | -1.5 | -1% | 0.8% | -8% | -1.0 | -2
CSCCC(NS(=O)(=O)c1ccc2c(c1)oc(=O)n2C)C(=O)NCc1ccc(Cl)cc1 (configuration not stated) | nt | nt | 1.1% | nt | 0.8 | 1
COc1ccc(Br)cc1CNC(=O)Cc1c(C(=O)O)[nH]c2ccc(Cl)cc12 | 0.7 | -28%[15.4 µM] | nt | 11% | -0.5 | 0
COc1ccccc1-n1cnc2cc(NC(=O)c3ccco3)ccc21 | 1.0 | 11% | 2.0% | -14% | -0.3 | -2
CCOc1ccccc1CNC(=O)C1Cc2cc(S(=O)(=O)N3CCCCC3)ccc2N1C(C)=O (configuration not stated) | nt | -75%[inhibitor] | -3.0% | -4% | -0.5 | -2
CN(Cc1ccccc1)C(=O)CSc1nc2ccccc2[nH]1 | -5.3 | 28%[15.4 µM] | nt | -2% | 0.1 | -15
C[C@@]12CCC=C[C@H]1[C@H](c1ccc3ccccc3c1)N(Cc1ccccc1)C2=O | 6.1 | nt | -3.8% | -2% | 0.7 | 33
CCC/C(=N\NC(=O)c1ccc(CSc2nncn2C)cc1)c1ccccc1 | 0.8 | -55%[inhibitor] | 0.2% | 5% | -0.1 | 11
COc1ccc(NC(=O)CN2C(=O)C(C)(C)c3cc(S(=O)(=O)N4CCCCC4)ccc32)cc1Cl | nt | nt | -0.3% | nt | 0.8 | 11
O=C(Cn1ncc2c1-c1ccccc1OC2)N1CCN(Cc2ccccc2)CC1 | 0.3 | 7%[15.4 µM] | nt | -6% | 0.2 | 10
COc1cc(OC)c(NC(=O)Cn2nc(C)n3cccc3c2=O)cc1Cl | nt | nt | 1.0% | nt | -0.5 | -1
CCCCN(C(=O)CSc1nc(CCC)cc(=O)[nH]1)c1c(N)n(Cc2ccccc2)c(=O)[nH]c1=O | nt | 12% | nt | -4% | 3.5 | 26
COc1ccccc1N1CCN(CCN(C(=O)C2CCCCC2)c2ccccn2)CC1 | 5.6 | nt | 1.1%&-1.7% | -4%&-2% | -0.3&0.8 | -9&5
Cc1nc(CCNC(=O)CC2C(=O)NCCN2Cc2ccoc2)nc2c1CCCC2 (configuration not stated) | -8.1 | 1% | -4.3% | 13% | 0.7 | 10
O=C(CSc1nc2ccccc2n1Cc1ccccc1F)NCc1ccccc1 | nt | nt | 0.4% | nt | 1.4 | 16
CCOc1ccc(-c2nonc2NC(=O)c2oc3ccc(F)cc3c2C)cc1 | nt | nt | -19% | nt | 0.2 | 82
OCC(CO)c1cnnc2ccccc12 | nt | 1% | 0.5% | 6% | 1.0 | -10
COCCN(C(=O)CSc1ncc(C(F)(F)F)cc1Cl)c1c(N)n(Cc2ccccc2)c(=O)[nH]c1=O | -8.6 | 14% | 0.2% | 14% | 0.1 | 8
ClC(CCN1CCN(Cc2ccccc2)CC1)c1ccccc1 (configuration not stated) | nt | -1%[15.4 µM] | 0.3% | 15% | -0.6 | 16
COc1cc(/C=C/C(=O)O)cc(S(=O)(=O)NC2CC2)c1OC | 1.6 | 11% | 0.3% | 1% | 0.3 | 45
CN(C)CCCN(C(=O)COc1ccc(Cl)cc1)c1nc2c(F)cccc2s1 | -4.1 | ? | -1.0% | 14% | nt | nt
CCN(CC)CCCNC(=O)Cn1cnc2sc(C)c(S(=O)(=O)N3CCN(c4ncccn4)CC3)c2c1=O | 0.2 | 13%[15.4 µM] | nt | 11% | -0.4 | -8
O=C(COC(=O)c1cncc(Br)c1)Nc1ccc(S(=O)(=O)N2CCOCC2)cc1 | nt | -53%[inhibitor] | -4.1% | nt | -0.2 | -14
CCN(CC)S(=O)(=O)c1cccc(-c2nnc(-c3ccc(C)cc3)o2)c1 | 3.8 | -66%[inhibitor] | ? | 1% | 2.9 | 86
CC(=O)Nc1ccc(NC(=O)CSc2nnc(NC(=O)c3ccco3)s2)cc1 | nt | 6% | -3.3% | 3% | 0.6 | 33
CC(C)c1ccc(NC(=O)C2CCN(S(=O)(=O)c3cccc4nsnc34)CC2)cc1 | nt | nt | 1.2% | nt | 0.7 | 17
O=C(NC1CCCCC1)NC12CC3CC(CC(C3)C1)C2 | 1.1 | 1% | -1.7% | 2% | 2.7 | -7

# New compounds follow:
mol | Menin MLL FP FL | gsp ag | ClpP mod | gsp antag | TRPML1 agonist | TRPML1 blocker
COc1ccc(N(CC(=O)N2CCc3ccccc3C2)S(C)(=O)=O)cc1OC | 1.7 | ? | -9.5% | -4% | -0.3 | 9
OCC1OC(n2cnc3c(NC4CCCC4)ncnc32)C(O)C1O (configuration not stated) | nt | nt | 0.4% | -5% | -0.4 | 5
C=CCNCCCCOc1ccc(C)cc1[N+](=O)[O-] | 2.7 | 2% | -3.2% | 5% | -0.2 | 1
CCCn1c(SCC(=O)Nc2ccccc2Cl)n[nH]c1=O | 1.6 | -1% | -0.1% | 6% | -0.7 | 7
Cc1nnc(SCC(=O)NCc2cccs2)[nH]c1=O | -3.1 | 9% | 0.0% | 6% | 0.3 | 11
O=C(NC(=O)N1CCCCC1)c1ccc(Cl)cc1 | nt | -29% | -0.8% | 0% | 0.0 | -4
O=C(CCc1ccccc1)OCC(=O)c1ccc(Br)cc1 | 6.0 | 3% | -2.1% | 5% | 6.5 | 22
CCOC(=O)C1CCN(Cc2cnc(Oc3ccc(N)cc3)s2)CC1 | 1.7 | -37%[inhibitor] | 0.3% | 11% | -1.1 | 2
COc1ccc(N(CC(=O)Nc2ccccc2SC)S(C)(=O)=O)cc1OC | -2.4 | 9% | -0.4% | -12% | -0.4 | 5
Nc1ncnc2c1ncn2-c1ccccc1Cl | nt | -5%[15.4 µM] | 1.9% | 26% | -0.4 | -10
Cc1nc(Nc2ccccc2)[nH]c(=O)c1CCC(C)C | 0.9 | 10% | -1.6% | 2% | 0.1 | 3
COC(=O)c1ccc(NC(=S)NC(=O)c2c(Cl)cnn2C)cc1 | 1.1 | 2% | nt | -15% | -0.9 | -2
Cc1cc(-n2c(=S)sc3c(=O)n(-c4ccc(F)cc4)c(SCC(=O)O)nc32)ccc1Cl | 3.0 | 29% | -0.6% | 2% | 0.0 | 10
CN(C)Cc1c(C(=O)Nc2ccccc2)[nH]c2ccccc12 | nt | nt | 193% | 2% | -0.4 | -4
Cc1cc(NC(=O)CSc2nc(-c3cccs3)nc3ccccc23)no1 | nt | ? | -23% | 18% | 1.6 | 80
Cc1nc2sc(C(c3ccc(Cl)cc3)N3CCN(c4ccccc4F)CC3)c(O)n2n1 (configuration not stated) | 0.4 | -33% | -0.2% | -10% | -0.1 | 20
Cc1cc(C)c2c(-n3cccc3)c(C(=O)NNS(=O)(=O)c3ccc(F)cc3)sc2n1 | -1.1 | ? | -0.6% | 11% | 0.1 | -2
Cc1cc2ncc(C(=O)N=CN(C)C)cn2n1 | -1.4 | 5% | nt | 6% | 0.4 | 2
CC(=O)c1ccc(S(=O)c2ccccc2)cc1 (configuration not stated) | -2.5 | 2% | -0.2% | 10% | -0.4 | 12

# Bioassay records deposited in PubChem by National Center for Advancing Translational Sciences (NCATS).
